# Mtb growth = Mycobacterium tuberculosis H37Rv growth inhibition, cell based, confirmatory dose response (AID 1949). 100,000 compounds, 1.6% hits. one-dose inhibition, % at 10 µg/mL; IC50 in µg/mL for titrated hits. most inactive calls were filed without a number and no value below 0 was filed;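 active = confirmed in a dose series; inconclusive = about 50% or more but not retested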;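 also: bacteria grown 7 days with compound before Alamar blue readout; 0% = untreated bacteria and 100% = reference antibiotic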
# * marks the source's active call; other numbers are inactive results; i = inactive; ? = inconclusive. Not all compounds are listed. The share of hits here may be higher or lower than overall.
item	compound	Mtb growth
1	O=C1CCCc2sc3c(c2N1)CCCCC3	i
2	O=C(NCCC1=CCCCC1)C1CCN(C(=O)c2ccc(-c3ccccc3)cc2)CC1	i
3	CN1CCN(NC(=S)Nc2ccc(F)cc2F)CC1	i
4	CCC(NS(=O)(=O)c1ccccc1)C(=O)O (stereo not given)	i
5	CC(=O)N1CCN(c2ccc(NC(=O)c3cc(I)ccc3Cl)cc2)CC1	i
6	O=C1C(Cl)=C(Nc2ccccc2)C(=O)N1c1cccc(Cl)c1	8%
7	CCn1nc(C)c(NC(=S)Nc2ccc(OC)c(OC)c2)c1C	1%
8	CCOC(=O)c1c(C)n(C(C)C)c2ccc(OC(=O)c3ccc(N4C(=O)CCC4=O)cc3)cc12	2%
9	COc1ccc(NC(=O)N2CCN(S(C)(=O)=O)CC2)cc1OC	i
10	Cc1ccc(S(=O)(=O)NC2CCCCC2)cc1C(N)=O	2%
11	CSc1ccccc1NC(=O)CN(C)S(=O)(=O)c1ccc(Br)cc1	2%
12	CC(=O)c1ccc(NC(=O)c2sc3nc(C)cc(C)c3c2N)cc1	i
13	CC(=O)Nc1nc(-c2ccc(C)cc2C)cs1	i
14	O=C(Oc1nsnc1N1CCOCC1)N1CCCC1	2%
15	Cc1ccc(-c2nnc(SCC(=O)N3CCCCC3)n2-c2ccccc2)c(Cl)c1	i
16	CC(C)c1ccc(C(=O)Nc2ccc(Cl)cc2F)cc1	5%
17	COc1cc(Cl)c(C)cc1NC(=O)C(C)Oc1ccc(Br)cc1 (stereo not given)	18%
18	COc1ccc(Cl)cc1Nc1nc(-c2cc3ccccc3oc2=O)cs1	2%
19	CC(C)CNC(=O)c1cccc(NC(=O)Cc2ccc(Cl)cc2)c1	i
20	O=C1NC(=O)C(CCc2ccncc2)(Cc2cccc(Cl)c2Cl)C(=O)N1c1ccc(Br)cc1 (stereo not given)	49%
21	CCN(CC)CCOc1ccccc1C(C)=O	i
22	Cc1ccc(CN2CCC(N3CCN(c4ccccc4F)CC3)CC2)cc1	i
23	CC(=O)Nc1ccc(OS(=O)(=O)c2cc(C)c(Br)cc2C)cc1	i
24	CCCNC(=O)c1c(O)c2ccccc2[nH]c1=O	i
25	O=C(Nc1ccc(S(=O)(=O)NC2CCCC2)cc1)N1CCCC1	i
26	CC1(C)CC(=O)C2=C(C1)N(Cc1ccco1)C1=C(C(=O)c3ccccc31)C2c1ccc(F)cc1 (stereo not given)	i
27	Cc1ccc2occ(CC(=O)Nc3cccnc3)c2c1	i
28	CC1CCCC(C)N1C(=O)CSc1nc2sc3c(c2c(=O)n1-c1ccccc1)CCCC3 (stereo not given)	2%
29	COc1ccc(C)cc1S(=O)(=O)N(C)CC(=O)O	i
30	Cc1c(Cl)cccc1NC(=S)NCC1CCCO1 (stereo not given)	i
31	O=C(CSc1nc2ccccc2s1)NO	?
32	O=C(Nc1nccs1)C1COc2ccccc2O1 (stereo not given)	i
33	Clc1ccc(CNc2ccccn2)cc1	i
34	O=C(Nc1ccc(F)cc1F)NC1CCN(Cc2ccccc2)CC1	i
35	O=C(NCc1ccccn1)c1ccc(Cn2cc(Br)cn2)o1	i
36	COc1cccc(C(=O)Nc2ccc(Oc3cc(C)ccc3C(C)C)cc2)c1	i
37	Cc1cc(-c2nn(C)c(=O)c3ccccc23)ccc1CNC(=O)NC1CCCCC1	2%
38	O=C(Nc1nnc(Cc2ccccc2)s1)C1CC(=O)N(C2CCCCC2)C1 (stereo not given)	i
39	CSc1nc(-c2ccc(C)cc2)c(C#N)c(=O)[nH]1	2%
40	CC(C)Nc1c([N+](=O)[O-])ccc2nonc12	i
41	O=C(COc1ccc(F)cc1)Nc1nnc(-c2ccccc2F)s1	i
42	O=C(O)CCN1C(=O)c2ccc3c4c(ccc(c24)C1=O)C(=O)N(CCC(=O)O)C3=O	i
43	O=S1(=O)NC(=NCCCO)c2ccccc21	3%
44	Cc1ccc(N(CC(=O)Nc2ccccc2-c2ccccc2)S(=O)(=O)c2ccc(F)cc2)cc1	i
45	Cc1sc2ncn(-c3ccc(I)cc3)c(=O)c2c1C	i
46	COc1cc(OC)c(OC)cc1CNC1CCCC1	i
47	COc1cc(C(=O)Nc2ccccc2Br)ccc1OCc1ccc(Cl)cc1	i
48	COC(=O)c1ccc(Cl)c(NC(C)=O)c1	i
49	Cn1c(CNC(=O)c2ccc(Cl)c(Cl)c2)nnc1SCC(=O)Nc1ccc([N+](=O)[O-])cc1	i
50	Cc1ccc(C)c(OCCNC(=O)c2ccccc2C)c1	i

# The list goes on:
item	compound	Mtb growth
51	CC(=O)NC1(C(F)(F)F)NC(=O)N(c2ccc(C)c(C)c2)C1=O (stereo not given)	i
52	Cc1ccc(N2C(=O)CCC2(C(N)=O)c2ccccc2)cc1 (stereo not given)	i
53	COCCSc1nnc(NC(=O)c2ccccc2SCCOC)s1	i
54	Clc1ccccc1Nc1nc(NCc2ccco2)c2ccccc2n1	2%
55	COC(=O)c1ccc(NC(=O)/C(=C\c2ccc(OC)cc2)NC(=O)c2ccccc2OC)cc1	i
56	CNS(=O)(=O)c1ccc(OC)c2ccccc12	i
57	O=C1c2ccccc2C(=O)N1c1nc(-c2cccs2)cs1	i
58	O=C(O)CCCC(=O)N1CCN(c2ccc(F)cc2)CC1	i
59	N/C(=N\OC(=O)N1c2ccccc2Sc2ccccc21)c1ccc(Br)cc1	i
60	CN1CCC(O)(c2ccccc2)C2CCCC21 (stereo not given)	i
61	CC(C(=O)N1CCc2ccccc2C1)N(c1ccc(Oc2ccccc2)cc1)S(C)(=O)=O (stereo not given)	i
62	N#C/C(=C\c1ccco1)c1nc2ccc(Cl)cc2c(=O)[nH]1	i
63	Cc1nc2ccc(C(=O)O)cc2nc1C	i
64	O=C(COc1cccc(-c2cnc3ccccc3n2)c1)c1ccccc1	i
65	O=C(Nc1nc2ccc([N+](=O)[O-])cc2s1)c1cc(-c2ccc3c(c2)OCO3)nc2ccccc12	i
66	CC(N)C12CC3CC(CC(O)(C3)C1)C2 (stereo not given)	4%
67	O=C(COc1ccc([N+](=O)[O-])cc1)NCCC1=CCCCC1	i
68	Cc1ccccc1OC(C)C(=O)Nc1ccccc1 (stereo not given)	i
69	O=C(COc1ccc(C(=O)NCCc2ccccc2)cc1)Nc1cc(Cl)cc(Cl)c1	i
70	CC(C)c1ccc(OCC(=O)Nc2cc(C(F)(F)F)ccc2N2CCOCC2)cc1	i
71	Cc1ccc(NC(=O)COc2ccccc2C(N)=O)c(C)c1	1%
72	COc1ccc(Cl)cc1/C=C(/C#N)c1ccccc1F	8%
73	COc1ccc(N(CC(=O)N2CCOCC2)S(=O)(=O)c2ccc(F)cc2)cc1	i
74	Cc1ccc(NC(=O)c2ccc(Cl)cc2Cl)nc1	i
75	COc1ccccc1OC(=O)c1sc2ccccc2c1Cl	1.4µg/mL*
76	CCc1ccc(C2CC(c3ccccc3OC)n3nc(N)nc3N2)cc1 (stereo not given)	17%
77	COc1ccc(NC(=S)Nc2cccc(Cn3nc(C)c(Br)c3C)c2)cc1OC	2%
78	CCOc1cc(C2C(C(=O)OC)=CN(C3CCCC3)C=C2C(=O)OC)cc(Cl)c1O	i
79	O=C(CNC(=O)Cc1ccccc1)NCC(=O)OCc1ccccc1	i
80	Cc1cc(C)cc(C(=O)Nc2ccc(NC(=O)Cc3ccccc3)cc2)c1	i
81	Cc1cccc(C(=O)Nc2ccc3oc(-c4cccnc4)nc3c2)c1	i
82	CC(=O)Nc1ccc(C(=O)NN2C(=O)c3ccccc3C2=O)cc1	i
83	O=c1c2c3c(sc2nc(SCc2ccccc2)n1Cc1ccccc1)CCC3	8%
84	CCC(NCCC1=CCCCC1)c1ccc(OC)c(OC)c1 (stereo not given)	i
85	COc1ccc(NC(=O)C(=O)NC2CC2)cc1OC	i
86	COC(=O)c1cccc(NC(=O)C2C3CCC(C3)C2C(=O)O)c1 (stereo not given)	3%
87	Cc1ccc(Nc2ncnc3ccc(Br)cc23)c(C)c1	33%
88	CS(=O)(=O)N(CC(=O)NC1CCCCC1)c1cc(Cl)ccc1Cl	i
89	CCCCc1ccc(NC(=S)N2CCC(C(N)=O)CC2)cc1	i
90	CCOc1ccc2c(=O)c(Oc3ccc(F)cc3)c(C(F)(F)F)oc2c1	3%
91	CN1CCN(c2nc(-c3ccccc3)cs2)CC1	i
92	CCSc1ccccc1C(=O)N1CCCC1	i
93	CCc1ccc(N2NC(=O)/C(=C/c3ccc(OC(=O)c4ccco4)c(OC)c3)C2=O)cc1	6%
94	CCOc1ccc(OCCCOc2ccccc2CC)cc1	3%
95	CCc1ccc(OCC(=O)N2CCN(c3ccccc3)CC2)c(Br)c1	i
96	Cc1ccc(NC(=O)COc2cccc(C3C4=C(CCCC4=O)NC4=C3C(=O)CCC4)c2)cc1C	i
97	CC(=O)Nc1nnc(-c2ccc(C)c(C)c2)s1	i
98	O=c1c2ccccc2nc(SCc2cc(=O)n3ccccc3n2)n1CC1COc2ccccc2O1 (stereo not given)	i
99	COc1nc(-c2ccccc2)ccc1-c1noc(-c2ccccc2C)n1	i
100	O=C(Cc1ccccc1)Nc1ccc(CN2CCOCC2)cc1	i

# Of the compounds above, these contain a CF3 group.
item	compound	Mtb growth
51	CC(=O)NC1(C(F)(F)F)NC(=O)N(c2ccc(C)c(C)c2)C1=O (stereo not given)	i
70	CC(C)c1ccc(OCC(=O)Nc2cc(C(F)(F)F)ccc2N2CCOCC2)cc1	i
90	CCOc1ccc2c(=O)c(Oc3ccc(F)cc3)c(C(F)(F)F)oc2c1	3%

# Sorted by count of non-hydrogen atoms (lowest first): some entries from above.
item	compound	Mtb growth
97	CC(=O)Nc1nnc(-c2ccc(C)c(C)c2)s1	i
14	O=C(Oc1nsnc1N1CCOCC1)N1CCCC1	2%
36	COc1cccc(C(=O)Nc2ccc(Oc3cc(C)ccc3C(C)C)cc2)c1	i

# Next results follow.
item	compound	Mtb growth
101	Cc1ccc(C(=O)Nc2cccc(F)c2)o1	0%
102	S=c1[nH]nc(-c2cccnc2)n1Cc1ccccc1	i
103	Cc1cc(C)cc(OCC(=O)NC2=NCCS2)c1	2%
104	COc1ccccc1C(=O)N1CCN(c2cccc(C)c2C)CC1	i
105	COC(=O)c1ccc(Cl)c(NC(=O)c2ccccc2N(Cc2ccccc2)S(=O)(=O)c2ccc(OC)cc2)c1	i
106	Cc1sc(NC(=O)c2ccccc2)c(C(=O)N2CCCC2)c1C	i
107	COc1cc(C(=O)Nc2ccccc2Br)ccc1OCc1ccccc1	i
108	CCOC(=O)C1=C(N)OC2=C(C(=O)CC(c3ccc(F)cc3)C2)C12C(=O)Nc1ccccc12 (stereo not given)	i
109	Cc1ccc(CNC(=O)CN(CCc2ccccc2)S(C)(=O)=O)cc1	i
110	Cc1ccnc(NS(=O)(=O)c2ccc(NS(=O)(=O)c3ccc(CC(C)C)cc3)cc2)n1	i
111	CN1CCN(CC(=O)Nc2nc3c(s2)CCCC3)CC1	i
112	COc1cc(CNCc2ccccc2)c(Br)cc1OC1CCCC1	11µg/mL*
113	CN(C1CCS(=O)(=O)C1)S(=O)c1ccc2ccccc2c1 (stereo not given)	i
114	CCOc1ccccc1C(=O)Nc1ccc2c(c1)OCCO2	i
115	COc1ccc(I)cc1CNCCO	i
116	O=CNC1CCCc2c1[nH]c1ccc(F)cc21 (stereo not given)	1%
117	O=C(Cn1cnc2ccccc2c1=O)c1ccc(Cl)c(Cl)c1	4%
118	Brc1ccc(Cn2nnc(-c3ccc4c(c3)OCO4)n2)cc1	i
119	COc1ccc(CCCC(=O)Nc2ccc(C(=O)O)cc2)cc1C	i
120	C=CCNC(=S)NC(=O)c1ccccc1F	0%
121	COc1ccc(C(CC(=O)Nc2cc([N+](=O)[O-])ccc2OC)c2ccccc2)cc1 (stereo not given)	1%
122	CC(=O)Oc1c(O)ccc2c(C)cc(=O)oc12	i
123	CCOc1ccc(-n2c(SCC(=O)Nc3ccc(S(N)(=O)=O)cc3)nc3ccccc3c2=O)cc1	i
124	COc1ccc(S(=O)(=O)NCc2cccnc2)cc1	i
125	C(=C\c1ccccc1)/CSc1nnc(-c2ccccn2)n1Cc1ccco1	6%
126	Cc1ccc(OC(C)C(=O)NNC(=O)c2cccc(C)c2)cc1 (stereo not given)	i
127	NC(=O)c1c(NC(=O)c2ccc(Cl)cc2Cl)sc2c1CCCCC2	i
128	COc1ccc(C(=O)CSc2nc3c(cc2C#N)CCC3)cc1OC	i
129	CCC(C#CCN1CCCCC1)(CC)OCCC#N	i
130	Cc1ccc2oc3c(c(=O)c2c1)C(c1ccc(F)cc1)N(Cc1ccccc1Cl)C3=O (stereo not given)	i
131	O=C(Nc1ccc(Br)cc1F)c1ccccc1-c1ccccc1	22%
132	O=C(CN1CCCC1)NC1C2CC3CC(C2)CC1C3 (stereo not given)	i
133	CCCCOc1ccc(NC(=O)c2cc3ccccc3oc2=O)cc1	i
134	CSC1=NC(C)=C(C(=O)Nc2ccccc2)C2(CCCCC2)C1C(N)=O (stereo not given)	i
135	CC(CS(=O)(=O)c1ccc([N+](=O)[O-])cc1)N1CCOCC1 (stereo not given)	i
136	CCOc1cc(CNc2ccccc2)ccc1OCc1ccc(F)cc1	13%
137	CC(=O)Oc1cccc(NC(=O)c2ccc3c(c2)C(=O)N(CC(C)C)C3=O)c1	0%
138	O=C(Nc1nc2ccccc2[nH]1)c1ccc([N+](=O)[O-])cc1	i
139	COc1ccc(C)cc1NS(=O)(=O)c1ccc(NC(=O)C(C)Sc2ccc(Cl)cc2)cc1 (stereo not given)	0%
140	O=C1N/C(=N/N=C/c2ccccc2Cl)SC1Cc1ccc(F)cc1 (stereo not given)	i
141	CS(=O)(=O)N(CC(=O)Nc1ccccc1-c1ccccc1)c1ccc2c(c1)OCCO2	i
142	CCOC(=O)c1ccc(NC(=O)c2c(I)cnn2C)cc1	i

# Results in sequence from above.
# Mtb growth for entries 96 to 99: i, i, i, i

# Quoted at random: 3 records from the list
item	compound	Mtb growth
128	COc1ccc(C(=O)CSc2nc3c(cc2C#N)CCC3)cc1OC	i
139	COc1ccc(C)cc1NS(=O)(=O)c1ccc(NC(=O)C(C)Sc2ccc(Cl)cc2)cc1 (stereo not given)	0%
127	NC(=O)c1c(NC(=O)c2ccc(Cl)cc2Cl)sc2c1CCCCC2	i
